# HCMV UL50-53 inh = inhibitors of HCMV UL50-UL53 nuclear egress complex interaction. HTRF UL50-UL53 interaction, normalized percent inhibition. inhibition, % (concentration not given with the values). hit rate 0.15% among 190,000. AID 1918969;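 active means both replicates at 50% or more, plus weaker picks with an unusually low signal ratio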;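 further: stock transfer was 100 nL into about 20 µL; 0% = negative control wells and 100% = wells with untagged competitor protein; inactives centre near -12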
# Sa growth 42C = inhibitors of Staphylococcus aureus growth at 42 °C | S. aureus RN4220 growth, OD600, 20 h; hits give low values | relative growth, % (test concentration not listed) | hit rate 0.53% among 170,000;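 active means growth at 42 °C up to 50% and 20 or more points under that at 30 °C, or under 10% at both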;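 further: 300 nL library stock went into each well; scaled to the means of positive and negative controls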
# GIV Gai3 FP = inhibitors of GIV GBA-motif binding to rat Galpha-i3 | P08753 | Galpha-i3/FITC-GIV peptide fluorescence polarization, 90 min; hits give low values; scaled: aluminum fluoride 0%, vehicle 100% | percent of control (FP), % (concentration not given with the values) | hit rate 0.42% among 210,000 | AID 1224905;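 active means replicate mean at 85% of control or lower, very high polarization wells dropped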;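 further: wells of about 15 µL received 100 nL stock; the first replicate is given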
# Target sequence (P08753 whole entry, looked up): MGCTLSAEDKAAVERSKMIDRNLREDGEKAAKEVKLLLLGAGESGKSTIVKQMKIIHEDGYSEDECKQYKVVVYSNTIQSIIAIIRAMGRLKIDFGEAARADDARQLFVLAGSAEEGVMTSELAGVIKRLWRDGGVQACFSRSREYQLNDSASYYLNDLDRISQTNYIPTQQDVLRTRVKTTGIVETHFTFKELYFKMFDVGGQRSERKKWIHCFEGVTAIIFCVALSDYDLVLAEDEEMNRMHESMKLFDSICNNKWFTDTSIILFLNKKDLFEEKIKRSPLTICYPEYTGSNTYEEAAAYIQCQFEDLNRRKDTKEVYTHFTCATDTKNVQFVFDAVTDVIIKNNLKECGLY
# Sa growth 42C second temp = recorded beside Sa growth 42C, whose call it bears; relative growth, %; measured here: growth at 30 °C;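 optical density after 20 h as mean of two plates; 100% = untreated growth and lower means inhibition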
# * hit, by the source's call; / = no result given; & = joins results of further samples.
SMILES,HCMV UL50-53 inh,Sa growth 42C,Sa growth 42C second temp,GIV Gai3 FP
Cn1c(=NC(=O)c2ccc(S(=O)(=O)N3CCCCC3)cc2)sc2c3ccccc3ccc21,/,90,93,101
CCN(C(=O)c1ccc2c(=O)n3c(nc2c1)CCCCC3)c1cc(C)ccc1C,-4,102,96,101
O=C(c1ccco1)N1CCN(c2nc3c(Cl)cccc3s2)CC1,/,95,92,106
CCc1ccc2[nH]c(=O)c(C(c3nnnn3C(C)(C)C)N3CCN(C(=O)c4ccco4)CC3)cc2c1 (stereo unspecified),-14,89,88,/
COc1ccc(NC(=O)c2nnn(Cc3nc(-c4ccc(C)cc4)oc3C)c2C)cc1,-10,/,/,98
COc1cc2c(cc1OC)C(C)N(C(=O)C1COc3ccccc3O1)CC2 (stereo unspecified),-4,/,/,104
CC(C)Cn1c(Sc2ncnc3sccc23)nc2ccccc2c1=O,0,80,93,/
COc1ccc2[nH]c(C(=O)O)c(NC(C)=O)c2c1,-23,/,/,107
Cc1cc(-c2nnc3sc(-c4cc(C)on4)nn23)n[nH]1,2,/,/,104
Cc1cccc(C(=O)OCC(=O)NC2CCS(=O)(=O)C2)c1C (stereo unspecified),-2,78,88,/
Cc1csc(-n2[nH]c(C)c(CC(=O)Nc3ccc(Br)cc3)c2=O)n1,-21,/,/,102
N/C(=N/OC(=O)c1ccccc1F)c1nonc1N,-4,110,92,106
CCOC(=O)c1c(-c2ccccc2)oc2ccc(O)c(CN3CCCC3)c12,-9,80,52,108
O=C(c1ccccc1)N1CCCc2ccccc21,0,/,/,105
O=C(c1ccc(N2CCOCC2)cc1)c1cccs1,-78,98,84,104
COc1ccccc1N1C(=O)S/C(=C\c2ccccc2)C1=O,/,111,90,103
O=C1OC(C(=O)O)Cc2ccc(Cl)cc21 (stereo unspecified),-14,/,/,102
Cc1ccc(C)c(CSc2nc3c(-c4ccccc4)c[nH]c3c(=O)[nH]2)c1,-8,/,/,107
COc1ccc(N2CCN(C(=O)c3cc(S(=O)(=O)N4CCC(C)CC4)cn3C)CC2)cc1,-26,89,88,97&109
COc1cccc(NC(=O)Cn2c(=O)oc3cc(S(=O)(=O)N4CCCCC4C)ccc32)c1 (stereo unspecified),-11,103,95,105

# Reformatted: results already given.
canonical_smiles	HCMV UL50-53 inh	Sa growth 42C	Sa growth 42C second temp	GIV Gai3 FP
Cc1csc(-n2[nH]c(C)c(CC(=O)Nc3ccc(Br)cc3)c2=O)n1	-21	/	/	102
N/C(=N/OC(=O)c1ccccc1F)c1nonc1N	-4	110	92	106
CCOC(=O)c1c(-c2ccccc2)oc2ccc(O)c(CN3CCCC3)c12	-9	80	52	108
O=C(c1ccccc1)N1CCCc2ccccc21	0	/	/	105
O=C(c1ccc(N2CCOCC2)cc1)c1cccs1	-78	98	84	104

# More compounds.
SMILES,HCMV UL50-53 inh,Sa growth 42C,Sa growth 42C second temp,GIV Gai3 FP
Cc1nc(S(=O)(=O)N2CCN(c3ccccc3F)CC2)cn1C,/,122,105,101
O=C(C1CC1)N(Cc1ccccn1)c1nc2ccccc2s1,-21,71,28,103
CCOc1ccccc1NC(=O)CN1C(=O)c2cccc3cccc1c23,0,98,95,101
O=C(O)C1CCCN1S(=O)(=O)c1ccccc1C(F)(F)F (stereo unspecified),10,96,99,/
COc1ccccc1C(=O)Nc1cc2c(cc1N1CCCC1)n(C)c(=O)c(=O)n2C,/,84,88,100
CCc1ccc(OCCNc2nc(C)c(Br)c(=O)[nH]2)cc1,-9,98,91,103
CCOc1ccccc1N(Cc1nc2nc(C)cc(=O)n2[nH]1)C(=O)COc1ccccc1,-19,/,/,100
CSc1scc(Cl)c1S(=O)(=O)C(C)C,-17,94,83,110
CN(CCC#N)C(=S)Nc1ccc(F)cc1,-21,85,87,103
COc1ccc(N2C(=O)c3cc4ccccc4n3CC2(C)C(=O)NC2CCCCC2)c(OC)c1 (stereo unspecified),-20,/,/,100
C1CCc2sc(NCC3CCCO3)nc2C1 (stereo unspecified),18,79,92,/
CCN1CCN(CCCNC(=O)c2ccc3c(c2)sc2nc(-c4ccc(OC)cc4)cn23)CC1,/,110,83,107
O=c1c2ccccc2c(C=Nc2cccc(O)c2)c(O)n1-c1cc(Cl)ccc1N1CCOCC1,-26,113,81,/
Cc1cccc(NC(=O)CSc2nc(=O)n(CCN3CCOCC3)c3c2CCC3)c1,/,115,92,96
CCN1C(=O)c2ccccc2Sc2ccc(NC(=O)c3ccc(C#N)cc3)cc21,/,122,90,99
CC(C)N1CCC(=NNc2cccc(C(=O)O)c2)CC1,-44,73,88,/
CC(C)CC(=O)Nc1ccc(C(=O)Nc2ccc(O)cc2)cc1,2,100,110,101
CN(C)c1ccc(C(CNC(=O)c2ccccc2Br)N2CCc3ccccc3C2)cc1 (stereo unspecified),-14,/,/,101
CCNC(=O)c1nn(-c2ccc(C)cc2)nc1CO,4,/,/,110
COc1ccc(C(=O)Nc2cc(Cl)cc(Cl)c2)c(OC)n1,5,104,86,99
CCn1c(=O)cc(OCC(=O)NCc2ccc(C)cc2)c2ccccc21,1,59,34,105
CCn1c(C(=O)Nc2cccc(C)n2)cc2c(=O)oc3ccccc3c21,4,/,/,99
CC(C)N(C(=O)CSc1ncnc2ccccc12)c1ccccc1,2,105,96,/
N#C/C(=C/c1cn(Cc2ccc(F)cc2)c2ccccc12)C(=O)Nc1cccc(Cl)c1,-60,102,92,111
Oc1ccc(Nc2nc(-c3ccc(O)cc3)cs2)cc1,-17,114,54,105
COc1ccc(N(Cc2cccs2)C(=O)COc2cc(C)c(Cl)c(C)c2)cc1,-19,96,88,103
CCOC(=O)c1ccc(N2C(=N)S/C(=C\c3ccc(F)cc3)C2=O)cc1,5,/,/,111
Clc1ccc(-c2noc(-c3ccc(NC4CCCC4)nn3)n2)cc1,-31,/,/,98
c1ccc2c(c1)nc(NCc1ccncc1)n2CCN1CCCCC1,-20,84,82,104
COc1ccccc1NC(=O)C(=O)NCC(c1cccnc1)N1CCc2ccccc2C1 (stereo unspecified),-28,111,86,103

# In the list so far, 3 have a cyano group.
SMILES,HCMV UL50-53 inh,Sa growth 42C,Sa growth 42C second temp,GIV Gai3 FP
CN(CCC#N)C(=S)Nc1ccc(F)cc1,-21,85,87,103
CCN1C(=O)c2ccccc2Sc2ccc(NC(=O)c3ccc(C#N)cc3)cc21,/,122,90,99
N#C/C(=C/c1cn(Cc2ccc(F)cc2)c2ccccc12)C(=O)Nc1cccc(Cl)c1,-60,102,92,111

# Remaining list, next part
SMILES,HCMV UL50-53 inh,Sa growth 42C,Sa growth 42C second temp,GIV Gai3 FP
COCCCn1c(=O)cc(C)[nH]c1=S,10,106,100,106
O=C(Cc1ccc(Cl)cc1)N1CCOCC1,10,99,100,102
Cc1cc(NC(=O)CCNS(=O)(=O)c2cccc3nsnc23)ccc1Br,-63,118,106,103
CC(C)Cn1c(SCC(=O)c2ccc[nH]2)nnc1-c1ccco1,9,103,77,/
COc1ccc(C(CNC(=O)COc2cc(C)cc(C)c2)N2CCCCC2)cc1 (stereo unspecified),-40,105,82,101
CC1Cc2ccccc2N1S(=O)(=O)c1ccc2c(c1)n(C)c(=O)c(=O)n2C (stereo unspecified),/,97,88,101
CN(C)S(=O)(=O)Nc1ccc(Oc2ccccc2)cc1,/,111,83,96
COc1ccccc1-n1nnc(C(=O)Nc2nccs2)c1C,-11,95,91,98
CCC(=O)Nc1cccc(-c2nc3ccccc3o2)c1C,-3,108,96,115
COc1ccc(OCC(=O)Nc2ccc(-c3nc4ncccc4o3)cc2)cc1,-1,104,82,103
CCCNC(=O)CN1C(=O)C2CCCCN2c2ccc(S(=O)(=O)N(C)C)cc21 (stereo unspecified),-17,/,/,100
Cc1cccc(-c2nc(C(N)=O)c3c(n2)n(-c2ccc4c(c2)OCO4)c(=O)n3C)c1,-30&-29,112,91,105&100
COc1ccc(OC)c(C2=NOC(C(=O)N3C(C)CCCC3C)C2)c1 (stereo unspecified),-26,100,89,99
Cc1ccn2cc(-c3cccc(NS(=O)(=O)c4cc(C)c(C)cc4C)c3)nc2c1,/,93,88,94
O=S(=O)(NCC1CCCO1)c1ccc2oc3ccc(S(=O)(=O)NCC4CCCO4)cc3c2c1 (stereo unspecified),/,92,81,106
Cc1nc(C(F)(F)F)nc(N2CCCCC2)c1Oc1ccccc1,-38,101,89,100
CCc1ccc(NC2SC(=O)N(c3ccccc3)C2=O)cc1 (stereo unspecified),/,89,99,96
COc1ccccc1CNC(=O)COCc1cc(-c2ccc3c(c2)OCO3)on1,/,125,83,100
C=CCOc1c(Br)cc(Br)c2cccnc12,-13,85,91,/
O=C(NCc1ccccc1)c1cc2ccccc2[nH]1,-24,70,94,/
O=C(OCC(=O)N(Cc1ccco1)C12CC3CC(CC(C3)C1)C2)c1cnccn1,9,119,92,/
NC(=O)C1CCN(C(=O)c2ccccc2NC(=O)c2nsc3ccccc23)CC1,/,93,98,101
O=C(OCc1ccc2c(c1)OCO2)c1ccccc1Br,-18,98,89,/
CCC(C)NC(=O)C1CCCN1S(=O)(=O)c1cc2c(cc1C)NC(=O)CO2 (stereo unspecified),-17,/,/,109
O=C(Cn1nnc(-c2ccccc2)n1)NCCC1=CCCCC1,-28,87,79,102
COc1ccc(OCC(=O)Nc2ccccc2C(=O)OCc2cc(=O)n3nc(C)sc3n2)cc1,/,82,89,102
N#CCN(CC#N)C(=O)Cc1cccs1,0,78,98,106
CCn1nc(Nc2ccc(C)cc2)c(Cl)c1Nc1ccc(C)cc1,-6,103,96,107
CN1CCN(c2ccc(CNC(=O)c3ccno3)cc2)CC1,-4,105,92,103
COc1ccc(S(=O)(=O)NCc2nc(-c3ccccc3)no2)cc1,-16,113,89,108
O=C(NC1CCCCC1)c1ccc2c(Cl)c3c(nc2c1)CCCC3,/,105,92,98
Cc1cc(-c2ccccc2)nc2cc(C(=O)N3C(C)CCCC3C)nn12 (stereo unspecified),-42,104,89,100
COc1cccc(C2=NOC(C(=O)N3CCCC3)C2)c1 (stereo unspecified),4,93,102,108
Cc1cccc(CCNC(=O)CCc2c(C)nc3ncnn3c2C)c1,-29,105,91,102
O=C(Cc1ccccc1)Nn1c(SCC(=O)c2ccccc2)nc2ccccc2c1=O,/,76,75,102
O=C(Cn1cccc1)NCCc1ccccc1,7,114,96,96
O/N=C(\c1ccccc1)C1CC2CCC1CC2 (stereo unspecified),14,98,101,97
O=C(Nc1nc2n(n1)C(c1ccc(F)cc1)C=C(c1ccccc1)N2)c1ccc(Cl)cc1 (stereo unspecified),-27,108,64,141
Cc1ccc(CN(C)C(=O)c2n[nH]c3ccccc23)o1,-24,104,94,/
CC(=O)N1C(=O)/C(=C\c2cccnc2)NC1=S,-44,98,83,/

# Reformatted: results already given.
# Values run as follows: HCMV UL50-53 inh | Sa growth 42C | Sa growth 42C second temp | GIV Gai3 FP
O=C(Cc1ccccc1)Nn1c(SCC(=O)c2ccccc2)nc2ccccc2c1=O
→ / | 76 | 75 | 102
O=C(Cn1cccc1)NCCc1ccccc1
→ 7 | 114 | 96 | 96
O/N=C(\c1ccccc1)C1CC2CCC1CC2 (stereo unspecified)
→ 14 | 98 | 101 | 97
O=C(Nc1nc2n(n1)C(c1ccc(F)cc1)C=C(c1ccccc1)N2)c1ccc(Cl)cc1 (stereo unspecified)
→ -27 | 108 | 64 | 141
Cc1ccc(CN(C)C(=O)c2n[nH]c3ccccc23)o1
→ -24 | 104 | 94 | /

# Quoted at random: 2 compounds from above
SMILES,HCMV UL50-53 inh,Sa growth 42C,Sa growth 42C second temp,GIV Gai3 FP
Cc1ccc(CN(C)C(=O)c2n[nH]c3ccccc23)o1,-24,104,94,/
O=C(Nc1nc2n(n1)C(c1ccc(F)cc1)C=C(c1ccccc1)N2)c1ccc(Cl)cc1 (stereo unspecified),-27,108,64,141

# Later entries.
SMILES,HCMV UL50-53 inh,Sa growth 42C,Sa growth 42C second temp,GIV Gai3 FP
Fc1ccc(C(c2nnc(-c3ccccc3)o2)N2CCN(c3ccccc3)CC2)c(Cl)c1 (stereo unspecified),/,74,84,101
Cc1ccc(NC(=O)C2CCCN(S(=O)(=O)c3ccc4c(c3)CCCC(=O)N4)C2)cc1Cl (stereo unspecified),/,108,74,108
O=c1c2ccccc2nc(-c2ccc(Cl)cc2)n1CCCOc1ccccc1F,-5,98,88,101
O=S1(=O)CCN2C(=N1)Oc1ccc(Cl)cc12,-4,97,94,/
COc1cc(-c2noc(CCC(=O)Nc3cc(C)ccc3C)n2)cc(OC)c1OC,-8,109,90,105
CC(C)CSc1nc2cc3c(cc2c(=O)n1Cc1ccco1)OCO3,6,106,105,98
Cc1nc(-c2ccc(C)c(S(=O)(=O)N3CCC(C(=O)N4CCN(c5ccc(Cl)cc5)CC4)CC3)c2)no1,-30,/,/,98
O=C(Cn1nnc(-c2ccc(F)cc2)n1)NCCN1C(=O)CSC1=O,-5,109,77,/

# Screens from PubChem.
